# RanGTP-Impb inh – inhibitors of RanGTP-importin-beta interaction, primary screen, biochemical, FRET, CFP-Ran, YFP-importin-beta, homogeneous | inhibition, % (concentration not given with the values) | cell-free CFP-Ran/YFP-importin-beta FRET ratio | 1.1% of 300,000 active;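 active = most replicates above 15%; inconclusive = exactly half above 15%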;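 also: 0% = DMSO wells and 100% = Ran loaded with GDP instead of GTP; wells of about 40 µL received 100 nL stock; the first replicate is given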
# MLL AF4-AF9 inh – inhibitors of human MLL-AF4/AF9 interaction; AID 651704; inhibition, % at 10 µM; AlphaScreen, biotin-AF4 peptide binding to FLAG-AF9; 0.47% of 350,000 active;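 active = every replicate reaching a set inhibition limit, whatever the replicate mean, cut at about 25% in these data; inconclusive = mean inhibition reaches that limit but some replicates miss it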;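 also: 0% = plate neutral control median and 100% = total signal loss; the record names both 10 and 1 µM as test concentration; the first replicate is given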
# Target sequence (P42568 whole entry, looked up): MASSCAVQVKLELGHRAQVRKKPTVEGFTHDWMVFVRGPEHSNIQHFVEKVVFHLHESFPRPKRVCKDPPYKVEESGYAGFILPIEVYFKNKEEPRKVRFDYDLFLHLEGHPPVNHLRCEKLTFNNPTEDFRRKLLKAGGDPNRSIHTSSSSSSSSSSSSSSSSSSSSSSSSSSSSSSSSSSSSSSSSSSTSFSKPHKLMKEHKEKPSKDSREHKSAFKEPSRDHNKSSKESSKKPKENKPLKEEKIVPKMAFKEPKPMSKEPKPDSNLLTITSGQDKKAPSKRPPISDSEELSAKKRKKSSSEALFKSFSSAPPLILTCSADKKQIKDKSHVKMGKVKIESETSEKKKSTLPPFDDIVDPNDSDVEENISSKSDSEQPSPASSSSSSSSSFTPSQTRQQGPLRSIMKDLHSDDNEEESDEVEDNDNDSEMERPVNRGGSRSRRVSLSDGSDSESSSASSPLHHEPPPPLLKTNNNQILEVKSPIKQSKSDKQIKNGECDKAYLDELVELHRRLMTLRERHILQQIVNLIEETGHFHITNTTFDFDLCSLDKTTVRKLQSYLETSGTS
# Calb FLC – C. albicans growth modulation with fluconazole; growth inhibition, % (no concentration beside the values); C. albicans CaCi-2 (fluconazole-resistant clinical isolate) + fluconazole, Alamar Blue growth, 48 h; 0.57% of 300,000 active;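 active = most replicates above 75%; inconclusive = exactly half above 75%; inactive = most below 75%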;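 also: all wells also contain fluconazole at 8 µg/ml as a sub-toxic cotreatment; 0% = median of DMSO wells and 100% = median of geldanamycin control wells; wells of about 8 µL received 7.5 nL stock; the first replicate is given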
# Ecoli rRNA inh – inhibitors of bacterial rRNA selective over humanized ribosomes; AID 720706; 1.6% of 350,000 active; GFP signal change (wild-type ribosome), % (concentration not given with the values); E. coli WT GFP vs humanized-ribosome RFP mutants, fluorescence, 24 h; hits give low values; DMSO median 0, no signal -100;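 active = significant combined selectivity score with lowered wild-type GFP, culture density cut under 30%, mutant RFP and density less affected; inactive = any of these conditions unmet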; also: one replicate is shown; some compounds called inactive have numbers as strong as hits
# T cruzi inh – blocks replication of Trypanosoma cruzi. T. cruzi beta-gal in NIH3T3, luminescence, 90 h. inhibition, % (no concentration beside the values). 1.4% of 300,000 active;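 active = mean inhibition across valid replicates above about 55%, limit read from the data; inconclusive = mean below that limit but half or more replicates reach it; inactive = mean below it, under half of replicates reach it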;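 also: signal also drops with host cell toxicity which is not excluded here; 0% = plate median of DMSO wells and 100% = zero luminescence signal; higher percent means less beta-gal luminescence so fewer parasites; stock transfer was 50 nL into about 50 µL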
# Beta cell apopt – beta cell apoptosis inhibition | INS-1E cytokine-induced death, ATP luminescence, 48 h; percent of positive-control rescue, neutral wells zero | protection from apoptosis, % (concentration not given with the values) | 0.8% of 300,000 active;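 active = all replicates at 75% or more, or half of them and the mean; inconclusive = half reach 75% but not the mean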;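 also: 0% = cytokine-treated negative control wells and 100% = positive control rescue; higher means more ATP so stronger rescue from cytokine killing; wells of about 40 µL received 100 nL stock; the first replicate is given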
# FGF22 binding – binders of recombinant human FGF22 by thermal shift | SYPRO orange fluorescence; percent of sucrose octasulfate shift, DMSO zero | 1.5% of 340,000 active | calls only at 9.99 µM;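 active = melting point raised past a set limit in the mean and every replicate; inconclusive = no clear call; three in four hits are not shown here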
# Target sequence (Q9HCT0 whole entry, looked up): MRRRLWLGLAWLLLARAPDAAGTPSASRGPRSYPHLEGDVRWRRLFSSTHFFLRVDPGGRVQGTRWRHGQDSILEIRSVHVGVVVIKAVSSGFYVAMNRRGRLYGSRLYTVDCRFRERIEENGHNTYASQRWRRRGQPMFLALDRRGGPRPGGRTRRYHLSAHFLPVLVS
# ALR H2O2 inh – blocks human ALR sulfhydryl oxidase activity | AID 485317 | 3.8% of 290,000 active | purified ALR, DTT oxidation, H2O2 HRP-luminol luminescence | inhibition, % (no concentration beside the values) | P55789;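 active = mean and each replicate at 75% or more; inconclusive = only one of the two met; inactive = neither met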;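 also: stock transfer was 7.5 nL into about 7.5 µL; 0% = neutral wells and 100% = wells with inactivated enzyme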
# Target sequence (P55789 whole entry, looked up): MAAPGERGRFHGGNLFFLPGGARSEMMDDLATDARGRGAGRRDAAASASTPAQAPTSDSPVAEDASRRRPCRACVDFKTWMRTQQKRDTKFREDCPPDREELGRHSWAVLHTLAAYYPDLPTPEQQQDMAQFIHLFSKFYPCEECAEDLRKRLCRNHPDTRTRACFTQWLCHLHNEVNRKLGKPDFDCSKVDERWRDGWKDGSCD
# Ecoli rRNA inh OD600 – further read-out of Ecoli rRNA inh, marked with its call; OD600 change, %; measured here: OD600 growth;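 optical density of the mix in the first replicate; 0 = DMSO median and -100 = no signal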
# Ecoli rRNA inh RFP – also measured in Ecoli rRNA inh; calls as there; RFP signal change, %; measured here: RFP humanized mutant strains;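 first replicate; 0 = DMSO median and -100 = no signal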
# * = called active by the depositor; i = inactive; ? = inconclusive; nt = not tested or not shown.
SMILES,RanGTP-Impb inh,MLL AF4-AF9 inh,Calb FLC,Ecoli rRNA inh,Ecoli rRNA inh OD600,Ecoli rRNA inh RFP,T cruzi inh,Beta cell apopt,FGF22 binding,ALR H2O2 inh
Cc1cc2nnc(SCC(=O)NCc3ccco3)n2c2ccccc12,1.5,-44,-1,-5,-2,5.2,-2,5,i,-4
C/C(CC(=O)Nc1ccc2c(c1)OCCO2)=N\NC(=O)COc1ccccc1,-0.3,1.4,-30,-6,-1,-2.1,-7,-1,i,nt
Cc1cc(C)c(NC(=O)c2cc(=O)c3ccccc3o2)c(C)c1,-3.0,-2.7,-16,1,-4,-3.7,-15,3,i,4
COc1cccc(NC(=O)NCCCSC2CCCCC2)c1,3.8,nt,-22,nt,nt,nt,19,8,nt,0
COc1ccc(NC(=O)CSc2nnc(Cc3ccccc3)c(=O)n2N)cc1,-2.0,-0.7,-5,2,4,0.3,-4,nt,i,99*
COCCn1c(C)cc(C(=O)CSc2nc3ccccc3c(=O)[nH]2)c1C,-0.4,nt,-6,nt,nt,nt,-18,23,nt,2
COc1ccccc1C(c1nnnn1Cc1ccco1)N1CCN(c2cccc(C)c2C)CC1 (stereo not drawn),4.6,nt,-1,nt,nt,nt,74*,6,nt,-4
O=C1CC(N2CCN(c3ccc(F)cc3)CC2)C(=O)N1c1ccccc1 (stereo not drawn),-2.6,0.5,10,6,10,-1.9,1,0,nt,59
CC(C)NS(=O)(=O)c1ccc(NC(=O)C(C)Oc2ccc(C(=O)c3ccccc3)cc2)cc1 (stereo not drawn),3.4,-0.7,19,-8,-11,-11,-31,-4,i,-3
Cc1cc(C)n2nc(C(=O)NCC(=O)Nc3ccc(F)c(F)c3)nc2n1,0.9,-2.2,0,6,14,-3.8,-4,2,i,2
Cc1nc2ccccn2c1CN(C)C(=O)C1CCC(=O)N(CCc2cccc(F)c2)C1 (stereo not drawn),-1.3,6.0,2,14,9,5.5,-21,-19,i,2
O=C1NC2(CCCCC2)C(=O)N1Cc1cc(=O)n2ccsc2n1,-0.3,1.8,-2,16,11,2.2,-8,-5,i,-35
COc1ccc(COc2cc(-c3cccc(OC)c3)nc3ccc(NC(=O)c4ccc(C)cc4)cc23)cc1,0.4,-0.4,-9,14,18,8.5,23,10,i,nt
COc1ccc(NC(=O)CCOc2ccc(C)cc2)c(OC)c1,4.8,-9.8,13,-10,1,-2.3,7,nt,i,-22
CC1CCCCN1C(=O)COC(=O)CNC(=O)c1ccc(Cl)cc1Cl (stereo not drawn),-2.2,-1.9,5,-2,-5,-1.6,-6,-4,i,-1
COc1ccc(-c2cc(-c3ccccc3)nc(N3CCCC3)n2)cc1OC,-3.8,-42,-2,26,30,31,21,2,i,-1
COc1cc(NC(=O)N[C@@H](Cc2ccccc2)C(=O)O)cc(OC)c1,-0.2,1.4,18,14,2,2.4,3,-1,i,-3
Cc1cc(=O)n2nc(N3CCCC(C(=O)N4CCc5ccccc54)C3)sc2n1 (stereo not drawn),-1.1,nt,-4,nt,nt,nt,11,7,nt,-2
O=C(Nc1ccc(N2CCCC2)c(Cl)c1)c1ccc2c(c1)OCCO2,-0.8,nt,-8,nt,nt,nt,59*,61,nt,-13
CC(=O)N1CCN(CC(=O)Nc2c(Cl)ccc(C)c2Cl)CC1,-1.8,-2.0,-2,13,13,-4.5,2,-2,i,nt
CC(=O)NN1C(=O)/C(=C2/Sc3ccccc3N2C)SC1=S,0.9,2.8,-3,14,13,3.4,-9,1,i,nt
Cc1ccccc1NC(=O)CN(C)S(=O)(=O)c1ccc2c(c1)n(C)c(=O)c(=O)n2C,6.6,0.1,-13,3,-1,-2.9,-11,2,i,12
COC(=O)c1nc2n(n1)C(c1ccccc1OC)C1=C(CCCC1=O)N2 (stereo not drawn),-3.3,nt,6,nt,nt,nt,-4,0,nt,5
Cc1ccc2c(c1)C1CN(C)CCC1N2C(=O)c1ccccc1NS(=O)(=O)c1cccc(C(F)(F)F)c1 (stereo not drawn),4.2,5.0,32,-50,-79,-28,52,-5,i,-5
CN(CC(=O)Oc1ccc(-c2nnco2)cc1)S(=O)(=O)c1ccc(F)cc1,2.9,13,3,8,12,-2.6,-9,-1,i,10

# Continued; it opens with the 2 that closed the last part.
SMILES,RanGTP-Impb inh,MLL AF4-AF9 inh,Calb FLC,Ecoli rRNA inh,Ecoli rRNA inh OD600,Ecoli rRNA inh RFP,T cruzi inh,Beta cell apopt,FGF22 binding,ALR H2O2 inh
Cc1ccc2c(c1)C1CN(C)CCC1N2C(=O)c1ccccc1NS(=O)(=O)c1cccc(C(F)(F)F)c1 (stereo not drawn),4.2,5.0,32,-50,-79,-28,52,-5,i,-5
CN(CC(=O)Oc1ccc(-c2nnco2)cc1)S(=O)(=O)c1ccc(F)cc1,2.9,13,3,8,12,-2.6,-9,-1,i,10
O=C(Cc1ccccc1F)NC1CCCc2ccccc21 (stereo not drawn),2.6,-2.2,5,4,2,-0.5,-1,-3,i,-6
Cc1cc(NS(=O)(=O)c2ccc(NC(=O)c3cccc(OC(F)F)c3)cc2)nc(C)n1,-0.2,-5.4,-12,-1,3,-0.3,8,-4,i,2
COc1ccc(OC)c(C(=O)NC(CC(N)=O)c2ccc(NCC3CC3)c([N+](=O)[O-])c2)c1 (stereo not drawn),-1.3,0.0,-1,-1,10,2.8,0,2,i,-1
COc1cc2cc(C(c3nnnn3C3CCCC3)N3CCCCCC3)c(=O)[nH]c2cc1OC (stereo not drawn),-2.1,nt,-7,nt,nt,nt,5,4,nt,-2
CSC1=NCCN1C(=O)c1c(F)cccc1F,6.2,nt,9,nt,nt,nt,-9,-7,nt,0
COc1ccc(-c2csc(N3C(=N)SCC3=O)n2)cc1,0.3,nt,3,nt,nt,nt,0,0,nt,-21
CC(=O)N1N=C(c2ccccc2)CC1c1ccccc1 (stereo not drawn),-3.4,-2.6,-8,-2,-10,-1.9,-13,3,i,-23
O=C(O)CCN1C(=O)C2C3c4ccccc4C(c4ccccc43)[C@@H]2C1=O (stereo partly drawn),-3.3,-7.0,-10,6,3,-4.4,-3,-7,i,-8
COc1cc(OC)cc(-c2c(-c3ccc(F)cc3)c3cc(-c4ccc5c(c4)OCCO5)ccc3n2C)c1,nt,-6.3,nt,3,8,-3.0,nt,2,i,-2
CCCCNC(=O)N(O)C1N(/N=C/c2ccccc2F)C(=S)SC1(C)C (stereo not drawn),-3.4,10,-10,5,8,1.7,-2,7,i,18
O=C(CSc1nnnn1-c1ccccc1)NC(=O)NCc1ccco1,0.7,nt,6,nt,nt,nt,27,-14,nt,7
CC(C)C(NS(=O)(=O)c1ccccc1)C(=O)N1CCCC1 (stereo not drawn),9.7,-1.7,5,0,1,0.6,8,-11,i,6
CC1CN(C(=O)COC(=O)c2cccc(S(=O)(=O)N3CCc4ccccc43)c2)CC(C)O1 (stereo not drawn),nt,-3.0,nt,1,-14,4.4,nt,0,i,-1
O=C(/C=C/c1ccc(Cl)cc1)NCc1ccco1,-0.1,-9.8,6,-4,5,-4.2,6,nt,i,0
CCOc1ccc(C(=O)O/N=C(\N)c2ccc([N+](=O)[O-])cc2)cc1OCC,-0.7,-15,-1,5,10,-1.1,25,nt,i,-8
S=C(Nc1cc(Cl)cc(Cl)c1)NC1CCN(Cc2ccccc2)CC1,1.3,7.6,-7,-54,-72,-8.5,45,-6,i,-18
COc1cccc(/C=N/NC(=O)C(=O)N2CCCC2)c1O,-2.0,6.5,-12,-4,-9,-4.0,-9,3,i,28
COCc1ccc(C(=O)N(C)CC2CCCN(CCc3ccc(Cl)cc3)C2)o1 (stereo not drawn),-0.7,2.5,-5,6,10,0.7,30,-8,i,-2
O=C(OCCc1cc2ccccc2c(=O)o1)c1cccs1,nt,-0.3,nt,-46,-64,-11,nt,-6,i,-3
CC(C)(C)OC(=O)N1CCC(c2c(C(=O)NC3CC3)cnn2-c2ccc(Cl)cc2)CC1,2.2,-0.5,-1,-16,-27,20,12,3,i,-3
COC(=O)c1ccc(NC(CC(C)C)C(=O)OC)c([N+](=O)[O-])c1 (stereo not drawn),-2.1,nt,-7,nt,nt,nt,-14,-3,nt,1
O=C(C1CCCN(C2CC(=O)N(c3ccc(F)cc3)C2=O)C1)N1CCCC1 (stereo not drawn),-0.2,-1.0,12,24,22,3.0,-13,-3,i,-18
CCCC(=O)N/C(N)=N/c1nc2ccccc2o1,0.4,-0.9,6,-31,-42,5.0,-6,-6,i,-8
CC(C)=CCc1c(O)ccc2c1OC(c1ccc(O)c(O)c1)CC2=O (stereo not drawn),-0.8,13,-17,-51,-77,-26,-22,0,i,?
CCCOP(=O)(c1ccc(N(C)C)cc1)C(O)c1ccncc1 (stereo not drawn),nt,nt,-32,nt,nt,nt,-19,-5,nt,3
# The listing continues:
SMILES,RanGTP-Impb inh,MLL AF4-AF9 inh,Calb FLC,Ecoli rRNA inh,Ecoli rRNA inh OD600,Ecoli rRNA inh RFP,T cruzi inh,Beta cell apopt,FGF22 binding,ALR H2O2 inh
CC(=O)NCCc1ccc(C(=O)Cn2cnc3ccccc3c2=O)cc1,-1.6,?,3,5,10,2.2,-1,nt,nt,1
O=C(Nc1nncs1)c1cccc(S(=O)(=O)N2CCCCC2)c1,0.7,nt,32,nt,nt,nt,-1,-1,nt,4
CCOC(=O)CSc1nnc(NCC(=O)OC(C)C)c(=O)[nH]1,7.8,nt,-2,nt,nt,nt,-19,-7,nt,97*
O=C(COc1ccc(-c2nnco2)cc1)Nc1cc([N+](=O)[O-])ccc1F,nt,-9.3,nt,-5,0,-1.1,nt,-4,i,nt
C=CCn1c(N2CCCC2)nc2c1c(=O)n(C)c(=O)n2C,1.4,-0.8,15,-1,2,-1.0,-11,-5,i,61
Cc1ccc(Nc2nnc(-c3ccc(N4CCOCC4)c([N+](=O)[O-])c3)c3ccccc23)cc1,-4.0,4.8,67,-8,-9,-1.9,51,17,i,2
Cn1nccc1C(=O)N/N=C/c1ccccc1[N+](=O)[O-],-1.8,-2.9,0,-2,-9,-0.7,-7,8,i,4
Cc1nc2sc(C(N)=O)c(N)c2c(C)c1CC(=O)c1ccccc1,-2.2,6.0,24,16,1,-1.7,-7,-18,i,1
O=C(Nc1cc(S(=O)(=O)N2CCOCC2)ccc1Cl)C1CCC1,2.5,-0.9,-1,5,3,0.1,0,4,nt,-4
COc1ccc(C(C)=O)cc1CN1C(=O)NC(c2ccccc2)(c2ccccc2)C1=O,-1.9,-0.4,-6,2,2,-1.3,20,6,i,-7
CN1CCN(S(=O)(=O)c2ccc(Oc3ccc(F)cc3Br)nc2)CC1,0.6,-2.9,6,5,0,-8.3,11,-3,i,nt
O=C(N1CCN(S(=O)(=O)c2ccc(Cl)cc2)CC1)n1ccnc1,nt,-0.5,nt,6,11,2.5,nt,1,i,-3
O=C(CCNC(=O)c1ccc([N+](=O)[O-])cc1)Nc1ccccc1N1CCCCC1,3.7,4.9,nt,0,0,-3.8,?,1,i,-5
FC(F)(F)c1cccc(Cn2nnnc2-c2cc(Cl)cc(Cl)c2)c1,-0.1,-0.1,10,-36,-59,4.7,10,4,i,-2
COc1ccc(-c2ccc3c(c2)O/C(=C\c2ccsc2)C3=O)cn1,nt,4.6,nt,4,10,-1.4,nt,-1,i,-3

# From PubChem BioAssay

# Some of the compounds tested, so the mix of outcomes need not match the whole.
